Screening data as filed in PubChem.
Tg IFNy HTS: T. gondii growth inhibition under IFN-gamma | Toxoplasma gondii growth in IFN-gamma-treated host cells; hits give low values; reference of the scale not given here | activity change, negative = inhibition, %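 (about 20 µM by stock and volumes)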 | 69,000 tested, 3.8% active | AID 1259416;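 active means below -70%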;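 further: host cells are HeLa cells infected with Toxoplasma gondii; parasite growth read as luciferase light; one replicate is shown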
* hit, by the source's call; & = joins results of further samples. Only part of the results is shown; the hit share may differ from the screen's.

compound,Tg IFNy HTS
CCc1cnc(N2CCC3C2CCC(=O)N3CC2CCOCC2)nc1 (stereo not drawn),5
CS(=O)(=O)NCC1CCN(Cc2cccc(-n3cccn3)c2)C1 (stereo not drawn),67
COc1ccc2c3c(n(C)c2c1)[C@H](CO)NCC31CN(Cc2ccc(-c3ccccn3)cc2)C1,-51
O=C(O)Cc1ccc(-c2ccccc2)cc1,30
CCN1C[C@H](COC)[C@@]2(CCN(C(=O)c3ccc4ccccc4c3)C2)C1,0
Cc1[nH]cnc1CN(C)C1CCCc2ccccc21 (stereo not drawn),3
CCc1nc(CN2CC[C@@H](c3ccc4c(c3)OCO4)[C@H](O)C2)c(C)[nH]1,5
CCn1c(CC2CCN(C(=O)c3csc(C(C)C)n3)CC2)nn(C)c1=O,-2
CCOC(=O)c1cnc(-c2cccs2)nc1Sc1ccc(Cl)cc1,-43
COc1ccc(-c2nc3cc4c(cc3o2)Oc2ccccc2N4)cc1,115
CCc1nnc(NC(=O)CSc2ncnc3scc(-c4ccc(C)cc4)c23)s1,-32
CN1C(=O)c2cc(NC(=O)C3CCOCC3)ccc2OC[C@@H]2O[C@H](CC(=O)NCCc3ccncc3)CC[C@@H]21,6
CCOc1ccccc1NC(=O)N1CCC2(CC1)Nc1cc(F)ccc1-n1cccc12,-11
N[C@@H](C(=O)O)c1ccc(O)c(C(=O)O)c1,2
Cc1ccccc1-c1ncc(CN2CCC3(CCCO3)CCC2=O)s1 (stereo not drawn),52

Next section:
compound,Tg IFNy HTS
CO[C@H]1CC[C@H]2CCOc3ccc(C#N)cc3C(=O)N(C)[C@@H](C)C(=O)N(C)C[C@H]1O2,-8
CC(C)N(C)[C@@H]1CCN(Cc2ccoc2)[C@H]1Cc1ccccc1,-3
O=C(NCc1ccc(N2CCCC2=O)cc1)c1cccc(Cl)c1,-3
Nc1ncnc(Nc2ccc3c(c2)OCO3)n1,77
Cn1c2c(c(=O)n(C)c1=O)C(CC(=O)Nc1ccccc1)C(=O)N2 (stereo not drawn),26
CC(C)N1CCOCC2(CCC(CNc3cc(N(C)C)ncn3)O2)C1 (stereo not drawn),21
C=CCN(CC1=CCCN(C)C1)C(=O)COC,4
Cc1nn(CC(=O)N2CCNCC2C(=O)NCc2ccccn2)c(C)c1C (stereo not drawn),6
O=C(C[C@@H]1CC[C@@H]2[C@H](COC[C@H](O)CN2Cc2nccs2)O1)N1CCC(Cc2ccccc2)CC1,6
CCc1nc(OCC(=O)Nc2ccc(OC)cc2)c2ccccc2n1,5
CCc1nc(CN(C)Cc2cccc(C(=O)Nc3nccn3C)c2)no1,1
CN(C)C(=O)CN1[C@@H]2CCN(C(=O)CC3CC3)CC[C@@H]2Oc2ccccc2S1(=O)=O,-5
CCc1cc(CN(C)C2CCN(C(=O)c3ccccn3)CC2)on1,-1
CNC(=O)C[C@@H]1CC[C@@H]2[C@H](COc3ccc(NC(=O)c4ccccc4F)cc3C(=O)N2C)O1,-1
Cc1oc(-c2ccc(C(=O)NCCc3ccccc3)cc2)nc1CN1CCc2ccccc21,-127*

Next part
compound,Tg IFNy HTS
COc1ccc2c3c(n(C)c2c1)[C@@H](CO)N(S(=O)(=O)c1cn(C)cn1)CC31CCN(C)CC1,-21
COc1cccc([C@@H]2CCN(C3CCN(C(=O)c4ccncc4)CC3)C[C@H]2O)c1,-1
COc1ncnc2c1CCN(S(=O)(=O)C1CC1)CC2,16
Cc1noc(C)c1NC(=O)N1CCC(n2cc(C(C)(C)C)nn2)CC1,18
CCN(CC1CCOCC1)C(=O)CCc1nc(-c2ccccc2C)no1,4
CCCNC(=O)[C@H]1[C@H](CO)[C@H]2Cn3c(cccc3=O)[C@@H]1N2CCC(F)(F)F,-10
Cc1nc(-c2ccc(Cl)cc2)sc1CCNC(=O)COc1ccc(F)cc1,23
Cc1cc(Cl)cc2c1NC(=O)[C@]21[C@@H]2C(=O)N(Cc3ccccc3)C(=O)[C@@H]2[C@@H]2CCCN21,-8
Cc1ccc(-c2nc(CCNC(=O)C(=O)Nc3ccccc3F)cs2)cc1,123
COc1ccc(NCc2cc3c(-c4cccc(F)c4)nn(-c4ccccc4)c3[nH]c2=O)cc1,-66
OC(CCCN1CCC(O)(c2ccc(Cl)cc2)CC1)c1ccc(F)cc1 (stereo not drawn),-55
Cc1ccc(CN2CCC3C2CCC(=O)N3CC2CCOCC2)cc1 (stereo not drawn),-38
Cc1nc(CN2C(=O)CC[C@@H]3[C@@H]2CCN3Cc2ccco2)cs1,1
COc1ccc(-c2cc3c(c(OC)c2)OCCNC3)nn1,3
O=C(Nc1ccc(S(=O)(=O)Nc2ccccc2Cl)c(Cl)c1)c1ccccn1,21

Next section:
compound,Tg IFNy HTS
Cc1cccc(Nc2nc(-c3ccncc3)cs2)c1,136
COc1ccc(-c2nc(C)c(CCNC(=O)c3cccc4ccccc34)s2)cc1OC,143
O=C(Cn1c(=O)cc(C(=O)N2CCc3ccccc3C2)c2ccccc21)Nc1ccc(Cl)cc1,-11
OCCOc1ccccc1-c1nccn1CCc1cccc(F)c1,4
N#Cc1ccc(C(=O)N2CCC3C2CC(=O)N3Cc2ccncc2)cc1 (stereo not drawn),-3
Cn1cc(CNC2CCc3c(ccc(=O)n3C)C2)cn1 (stereo not drawn),-11
CC(C)c1ccc(NC(=O)Cn2c(=O)cc(C(=O)N3CCCCC3)c3ccccc32)cc1,-17
CCCN1CCC(NC(c2nccn2C)C(C)C)CC1 (stereo not drawn),2
COc1cc(CCc2cc(=O)n3[nH]cc(-c4ccccc4)c3n2)on1,333
Cc1noc(C)c1S(=O)(=O)N(C)C[C@@H]1OCc2cn(nn2)CCCC(=O)N([C@@H](C)CO)C[C@@H]1C,13
O=C(NO)c1ccccc1O,-9
COCCN1CCOCC12CCN(c1cnccn1)CC2,6
Cc1cc(N2CCC(C)CC2)nc(SCC(=O)c2ccccc2)n1,-17
O=C(Nc1ccc(Cl)cc1)c1c(C(F)(F)F)ccnc1Sc1ccccc1,-35
NCC1CN(Cc2cn(CCC(N)=O)c3ccccc23)CCO1 (stereo not drawn),-3

New compounds follow:
compound,Tg IFNy HTS
CCN1CCCC1CNC(=O)C1CCN(S(=O)(=O)c2ccc3c(ccn3CC)c2)CC1 (stereo not drawn),-15
CN(C)C(=O)N1CC[C@@]2(C[C@H](N3CCCC3=O)CCO2)C1,19
O=C(NCC1CCC(c2[nH]nc3nccnc23)CC1)c1ccccc1F (stereo not drawn),-46
O=C(NCc1cccnc1)[C@@]12COC[C@@H]1CN(c1ncccn1)C2,-1
O=C(NCCc1ccc(F)cc1)N1CCC2(CCCNC2)C1 (stereo not drawn),-14
CCOc1ccc(Nc2nc(-c3nnc(-c4ccc(OC)cc4)o3)nc3ccccc23)cc1,231
O=C(c1ccco1)N1CC2CC(CN(CC3CCOC3)C2)C1 (stereo not drawn),7
CC(C)(C)OC(=O)N1Cc2ccccc2C[C@H]1C(=O)O,28
CCN(Cc1cccc(C(=O)Nc2c(C)noc2C)c1)CC1CCCO1 (stereo not drawn),6
Cc1cccc(-c2cn[nH]c2C2CCN(C(=O)CN)CC2)c1,130
Cc1nnsc1C(=O)n1nc(C(C)(C)C)cc1C(C)(C)C,-41
CC(C)c1nn(-c2ncccc2C(F)(F)F)c(=O)o1,4
Cc1ccccc1Cc1cnc(NC(=O)C2(C)Cc3ccccc3C(=O)O2)s1 (stereo not drawn),-52
CN(C1CCCCC1)C1CCN(S(=O)(=O)c2ccc3[nH]c(=O)ccc3c2)CC1,7
CCn1c(N2CCN(C(=S)NCc3ccco3)CC2)nc2ccccc21,1

A second format for two compounds above.
> Cc1ccccc1Cc1cnc(NC(=O)C2(C)Cc3ccccc3C(=O)O2)s1 (stereo not drawn)
  Tg IFNy HTS: -52
> CN(C1CCCCC1)C1CCN(S(=O)(=O)c2ccc3[nH]c(=O)ccc3c2)CC1
  Tg IFNy HTS: 7

Later entries:
compound,Tg IFNy HTS
Cn1cc(-c2ccc(C(=O)N3CCCN(c4ncccn4)CC3)cn2)cn1,2
CC1(C)NC(=O)N(CN(CN2C(=O)NC(C)(C)C2=O)c2ccccc2)C1=O,3
Cc1ccc(N=Nc2c(Nc3ccccc3Cl)[nH]n(C)c2=O)cc1,54
COc1ccc(-c2cnc3n2CCNC32CCN(C(=O)N3CCOCC3)CC2)cc1,-50
Cc1cccc(C(=O)Nc2c(C(=O)N3CCCC3)[nH]c3ccc(C)cc23)c1,14
CC(=O)N(CC1CCC1)C[C@H]1N[C@H](CO)[C@@H]1c1ccc(C2=CCCC2)cc1,-24
Cc1c(Nc2ncccc2C(=O)O)cccc1C(F)(F)F,31&42
CCC(=O)N1[C@@H](CO)[C@@H](c2ccccc2)C12CN(C(=O)c1ccncc1)C2,8
COc1cccc(NC(=O)c2c(O)c3ccccc3[nH]c2=O)c1,132
Cc1cc(Oc2ccc(N)cn2)ccc1Cl,51
CCCNC(=O)N1[C@@H](C#N)[C@@H](c2ccc(C#Cc3cccc(F)c3)cc2)[C@@H]1CO,-41
O=C(c1ccco1)N1CC[C@@H]2CN(C3CCOCC3)CCO[C@H]2C1,5
Cc1cccc(NC(=O)Cn2c(=O)cc(C(=O)N3CCCC3)c3ccccc32)c1C,4
CCn1cc(-c2c(-c3ccccc3)ncn2Cc2cn3ccc(C)cc3n2)cn1,-13
O=C(NC1CCCCC1)N1CCc2ccccc2C1,137

Further entries
compound,Tg IFNy HTS
CCCn1ccnc1CN1CCc2[nH]cnc2C1Cc1ccccc1 (stereo not drawn),-47
O=C(NCCc1csc(-c2ccc(F)cc2)n1)C(=O)Nc1ccc2c(c1)OCCO2,-23
C=CCOC(=O)N1CCC(Oc2ccc3ncccc3c2)(C(=O)O)CC1,-61
COc1ccc(OC)c(NC(=O)Cn2c(=O)cc(-c3nc(C)no3)c3ccccc32)c1,-13
Clc1ccc(-c2nc(N3CCC(c4ccccc4)C3)c3ccccc3n2)cc1 (stereo not drawn),-1
O=C(C[C@H]1CC[C@H](NS(=O)(=O)c2ccc(F)cc2)[C@@H](CO)O1)N1CCN(c2ccccc2)CC1,-54
OCc1cc(/C=C/c2ccccc2)ccn1,55
COCC(=O)N1[C@H](CO)[C@H]2c3ccccc3N(C(=O)c3cccnc3)C[C@H]21,-1
Cc1ccccc1-c1ccc(C2[C@@H]3CN(C(=O)Cc4ccncc4)C[C@H]2N3)cc1 (stereo partly drawn),-15&-45
c1cc(CN2CCOCC2)cc(-c2ccc3ccccc3n2)c1,304
CCn1c2c(ccc1=O)CC(N)CC2 (stereo not drawn),-16
CN(C)c1ccc(CNC(=O)C2CCN(S(=O)(=O)c3ccc4[nH]c(=O)ccc4c3)CC2)cc1,95
COc1cccc(-n2c(=O)c(C(=O)NCc3ccccc3Cl)c(O)c3cccnc32)c1,-91*
CCCCOc1ccc(-c2nnc(-c3cccs3)n2-c2ccccc2)cc1,-80*
CCC(=O)Nc1ccc2c(c1)C(=O)N(C)C[C@@H](OC)[C@H](C)CN(C(=O)Cc1cccnc1)[C@@H](C)CO2,98

Next entries
compound,Tg IFNy HTS
COC(=O)c1cc(Cl)ccc1OC,16
CCNc1ncc(C(=O)N2CCN(Cc3ncccc3C)CC2)cn1,3
CO[C@@H]1CC[C@@H]2CCOc3ccc(C#N)cc3C(=O)N(C)[C@@H](C)C(=O)N(C)C[C@H]1O2,12
COc1cccc(NC(=O)COc2nc(C)nc3ccccc23)c1,-4
COc1cccc(-c2ccc(C(=O)N3CCCn4cncc4C3)o2)c1,9
O=C(Nc1ccccc1)[C@@H]1[C@@H](CO)[C@@H]2Cn3c(cccc3=O)[C@H]1N2C(=O)c1ccc(F)cc1,3
CC(C)NC(=O)N1Cc2cc(C(=O)NC3CCC3)nc(-c3cccc(-c4cncnc4)c3)c2[C@@H]1CCO,5
C[C@H](CCC(=O)O)[C@H]1CC[C@H]2[C@@H]3C[C@H](O)[C@@H]4C[C@H](O)CC[C@]4(C)[C@H]3CC[C@]12C,8
CC(C)(C)C(=O)CSc1nc(N)c(C(=O)C(C)(C)C)s1,292
O=C1c2ccccc2N2C(=O)c3ccccc3C2N1Cc1ccco1 (stereo not drawn),12
COc1cccc(-c2nc3c(s2)CN(C(=O)Nc2ccc(C)c(C)c2)CC3)c1,-50
CCn1c(CC2CCN(C(=O)CN3CCCCCC3=O)CC2)nn(C)c1=O,0
O=C(Cn1ncc2c(N3CCOCC3)ncnc21)NCc1cccc(Br)c1,165

Structural class, those above with a Cl atom (13)
compound,Tg IFNy HTS
CCOC(=O)c1cnc(-c2cccs2)nc1Sc1ccc(Cl)cc1,-43
O=C(NCc1ccc(N2CCCC2=O)cc1)c1cccc(Cl)c1,-3
Cc1nc(-c2ccc(Cl)cc2)sc1CCNC(=O)COc1ccc(F)cc1,23
Cc1cc(Cl)cc2c1NC(=O)[C@]21[C@@H]2C(=O)N(Cc3ccccc3)C(=O)[C@@H]2[C@@H]2CCCN21,-8
OC(CCCN1CCC(O)(c2ccc(Cl)cc2)CC1)c1ccc(F)cc1 (stereo not drawn),-55
O=C(Nc1ccc(S(=O)(=O)Nc2ccccc2Cl)c(Cl)c1)c1ccccn1,21
O=C(Cn1c(=O)cc(C(=O)N2CCc3ccccc3C2)c2ccccc21)Nc1ccc(Cl)cc1,-11
O=C(Nc1ccc(Cl)cc1)c1c(C(F)(F)F)ccnc1Sc1ccccc1,-35
Cc1ccc(N=Nc2c(Nc3ccccc3Cl)[nH]n(C)c2=O)cc1,54
Cc1cc(Oc2ccc(N)cn2)ccc1Cl,51
Clc1ccc(-c2nc(N3CCC(c4ccccc4)C3)c3ccccc3n2)cc1 (stereo not drawn),-1
COc1cccc(-n2c(=O)c(C(=O)NCc3ccccc3Cl)c(O)c3cccnc32)c1,-91*
COC(=O)c1cc(Cl)ccc1OC,16
